CtBP-E1A blk – inhibitors of CtBP/E1A interaction | AlphaScreen GST-E1A/His-CtBP binding, 1536-well; stronger effect = lower value; control for the full effect not named in the record | activity change, % (test concentration not listed) | actives 0.49% (n = 340,000) | AID 651724; in the data active means activity change below about -65%; inconclusive means about -30% to -65%; inactive means above about -30%; also: % is scaled to controls: 0 for no effect and ±100 for the full control effect; compound concentration not given in the record
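AlphaScreen with 125 nM GST-E1A and 125 nM His-CtBP (5X stocks) in Tris pH 8.0, 300 mM NaCl, BSA, Tween 20, TCEP. Compounds preincubated 2 h at 37 deg C, then glutathione donor/nickel acceptor beads added for 1 h at 37 deg C in dark.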
Menin-MLL FL inh – menin-MLL binding inhibition, fluorescein peptide. Fluorescence polarization, fluorescein-MLL peptide displacement from menin. FP activity change, % at 61.4 µM. 290,000 tested, under 10 active. AID 1766; inconclusive = falling polarisation curve, or a change in total fluorescence; inactive = total fluorescence flat and polarisation flat or rising; no compound was filed as active; the % refers to the polarisation; negative = inhibition;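 also: % of control where 0% means no effect; inhibitors lower the polarisation; unlabelled MLL peptide was the positive control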
ClpP mod – qHTS Assay for Activators of ClpP; ATP-dependent Clp protease proteolytic subunit (Bacillus subtilis (strain 168)), P80244; purified B. subtilis ClpP, FRET peptide cleavage, 20 min; Potency, µM (top dose mostly 57.5 µM), inactives show at the top dose activity change, negative = active; actives 1.9% (n = 340,000); AID 651965, 2013; active = well fitted falling curve with a large enough effect; inconclusive = small, poorly fitted or top-dose-only effect; inactive = no such curve, though single readings can be large or run the other way; also: potency is read from the fitted curve at half-maximal effect; the source files actives as falling curves though it sought activators and does not explain the sign; nearly all actives have a fitted effect of over 65% in size; many hits overshoot -100%
Target sequence (P80244 whole entry, looked up): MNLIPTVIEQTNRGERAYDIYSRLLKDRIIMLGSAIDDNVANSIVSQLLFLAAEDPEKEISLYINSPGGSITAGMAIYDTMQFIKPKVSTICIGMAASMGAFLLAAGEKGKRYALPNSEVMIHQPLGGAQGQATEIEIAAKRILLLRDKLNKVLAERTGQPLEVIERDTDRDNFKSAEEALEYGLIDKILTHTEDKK
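Buffer: 100 mM Tris/HCl pH8, 100 mM KCl, 0.05% low protease BSA, 2.5% glycerol, 0.01% Tween-20. ClpP 10 microg/mL final; 20 min RT; delta FRET normalized to ADEP and DMSO controls.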
gsp antagonist – antagonizes gsp, the McCune-Albright syndrome mutation; gsp-mutant cells, cAMP HTRF, 30 min; control for the full effect not named in the record; Potency, µM (series often up to 76.9 µM), for inactives: at the highest dose activity change, negative = inhibition, most hits filed as inhibitors; actives 0.4% (n = 340,000); AID 624288; active = falling curve of any shape with a large fitted effect; inconclusive = falling curve, mostly with a smaller effect; inactive = flat or rising curve; cell line not stated here;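 also: intracellular cAMP measured with PDE inhibitor Ro 20-1724 present during compound exposure; potency is read from the fitted curve at half-maximal effect; % is scaled to controls: 0 for no effect and ±100 for the full control effect; nearly all actives have a fitted effect of over 65% in size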
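G418-selected cells were plated in DMEM/10% FBS for 16-24 h at 37C, then treated with compounds plus the PDE inhibitor […] (300 uM solution added) for 30 min at 37C. Intracellular cAMP was measured by HTRF after 30 min lysis at room temperature.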
Sfp inh – inhibitors of Bacillus subtilis Sfp phosphopantetheinyl transferase; Biochemical Sfp PPTase activity, qHTS; Potency, µM, inactives show max response, negative = inhibition, usual class: inhibitors; actives 3.5% (n = 310,000); active = well fitted inhibition curve with a large enough effect; inconclusive = small, poorly fitted or top-dose-only effect, or another doubt; inactive = no such curve, though single readings can be large or run the other way;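 also: the enzyme is Sfp with the accession as filed and its product quenches rhodamine fluorescence; potency is read from the fitted curve at half-maximal effect; 0% = enzyme reaction without inhibitor and -100% = no enzyme wells; top concentration of the series not given in the record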
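Fluorescence-quenching assay: 15 nM Sfp-PPTase preincubated 15 min at room temperature with compound, then 5 uM rhodamine-CoA and 12.5 uM BHQ-2-labelled YbbR peptide added. Fluorescence (ex 525/em 598 nm) read at start and after 30 min; difference gives rate.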
gsp agonist – gsp mutant agonism; gsp mutant cells, cAMP HTRF, 30 min; control for the full effect not named in the record; Potency, µM (titrated, usually from 76.9 µM), for inactives: at the top dose activation (cAMP increase), usual class: activators; actives 0.13% (n = 340,000); AID 624287; active = well fitted activation curve with a large enough effect; inconclusive = small, poorly fitted or top-dose-only effect, or another doubt; inactive = no such curve, though single readings can be large or run the other way; cell line not stated here;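 also: phosphodiesterase inhibitor Ro 20-1724 added with compounds to block cAMP breakdown; potency is read from the fitted curve at half-maximal effect; nearly all actives have a fitted effect of over 60% in size; about a fifth of the inactives were tested at one dose only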
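Cells stably selected in G418 were plated at 2000/well, grown 16-24 hr, then given compounds in DMSO with the PDE inhibitor […] (300 uM solution added) for 30 min at 37C; cAMP was read by HTRF.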
TRPV1 potentiator – enhances activation of the human vanilloid receptor TRPV1; Q8NER1; TRPV1-expressing cells, Fluo-8 calcium influx, capsaicin EC20 potentiation; host cell line not named in the record; control for the full effect not named in the record; potentiation, % at 8.33 µM; actives 0.02% (n = 320,000); active means potentiation above 80%; inconclusive means 30% to 80%; inactive means below 30%; also: 0% is about no effect
Target sequence (Q8NER1 whole entry, looked up): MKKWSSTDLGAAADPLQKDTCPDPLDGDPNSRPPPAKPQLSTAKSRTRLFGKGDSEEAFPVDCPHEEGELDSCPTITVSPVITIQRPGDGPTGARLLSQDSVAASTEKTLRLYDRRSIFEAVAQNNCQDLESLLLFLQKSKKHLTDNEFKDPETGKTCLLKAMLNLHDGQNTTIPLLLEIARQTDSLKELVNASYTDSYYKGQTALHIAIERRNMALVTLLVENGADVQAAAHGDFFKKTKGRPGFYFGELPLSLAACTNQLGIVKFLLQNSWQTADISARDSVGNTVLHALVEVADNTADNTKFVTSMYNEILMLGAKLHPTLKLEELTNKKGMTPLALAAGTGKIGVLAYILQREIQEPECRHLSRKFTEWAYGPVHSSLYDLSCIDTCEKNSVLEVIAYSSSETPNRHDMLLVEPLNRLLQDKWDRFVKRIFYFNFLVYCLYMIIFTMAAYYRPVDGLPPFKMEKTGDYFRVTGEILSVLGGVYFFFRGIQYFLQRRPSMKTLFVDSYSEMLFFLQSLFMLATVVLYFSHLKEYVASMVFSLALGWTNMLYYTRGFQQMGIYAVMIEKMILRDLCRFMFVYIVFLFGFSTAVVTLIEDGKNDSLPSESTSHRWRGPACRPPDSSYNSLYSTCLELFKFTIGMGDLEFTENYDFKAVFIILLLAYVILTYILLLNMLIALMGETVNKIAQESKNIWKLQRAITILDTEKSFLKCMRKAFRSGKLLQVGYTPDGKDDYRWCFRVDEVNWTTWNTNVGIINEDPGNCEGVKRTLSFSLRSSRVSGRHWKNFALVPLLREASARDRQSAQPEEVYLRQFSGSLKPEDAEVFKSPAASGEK
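Cells expressing TRPV1 were dye-loaded with Fluo-8 and read kinetically: 10 s baseline, 3 min after compound (agonist portion), then 2 min after EC20 capsaicin (allosteric enhancer portion). Calcium-bound dye fluorescence at 480/520 nm.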
Numbers without * were called inactive; ? = inconclusive; . = not tested or not shown; & = joins results of further samples; [ ] = remark or other dose. Rows were taken by chance. Share with any hit: about 5.3%.

#	Compound	CtBP-E1A blk	gsp agonist	gsp antagonist	ClpP mod	Sfp inh	Menin-MLL FL inh	TRPV1 potentiator
1	O=C(CCNC(=O)c1ccccc1Cl)NCC(c1ccco1)N1CCCC1 (configuration not stated)	5	-1%	13%	-2.6%	.	.	-4
2	CN(C)C(=O)C#Cc1ccccc1	7	-11%[15.4 µM]	-20%	1.0%	11%	2.7	1
3	Cc1ccc(C(=O)NCC(=O)NCC(=O)OCC(=O)c2ccc([N+](=O)[O-])cc2)cc1	3	-40%[inhibitor]	-6%	0.7%	-54%	-1.7	2
4	COc1cccc(C(=O)Oc2ccc(/C=N/NC(=O)c3ccncc3)cc2OC)c1	-2	2%[15.4 µM]	-13%	.	-2%	.	-3
5	Nc1ccc(C2CCCc3nonc32)c2nonc12 (configuration not stated)	1	-24%	1%	-1.1%	-19%	9.5	-3
6	Cc1cc2c(cc1C)CSC(c1ccccc1OC(=O)C(C)(C)C)SC2	-6	2%	-1%	-3.3%	-4%	-0.2	3
7	OC(CNCC1CCCO1)Cn1c2ccc(Br)cc2c2cc(Br)ccc21 (configuration not stated)	-5	?	18%	0.3%	22µM*	2.0	15
8	O=C(CSc1nnc2ccccn12)N1CCc2ccccc2C1	1	?	9%	-21%	0%	-0.1	-12
9	CC1=NC(C#N)=C(C#N)NC(C)(C)C1	-13	-11%[15.4 µM]	7%	.	5%	-0.1	-16
10	Cc1nc2ccccc2n1CC(O)COC1CCCCC1 (configuration not stated)	4	-6%	-20%	-1.1%	25%	-2.3	1
11	CCc1nc2ccc(C(=O)N(C)CC(=O)Nc3cccc(F)c3)cc2nc1CC	2	?	-5%	-0.2%	.	.	-9
12	COc1ccc(/C(N)=N/OC(=O)c2ccc3ccccc3c2)cc1OC	5	-86%[inhibitor]	.	-3.7%	.	.	.
13	Cc1ccc2nc3[nH]c(=O)[nH]c(=O)c3c(N)c2c1	?	14%	19%	.	.	.	.
14	Nn1c(SCc2c(F)cccc2F)nnc1-c1ccccn1	?	-12%[15.4 µM]	14%	.	16%	4.4	2
15	O=C(O)CSCC(=O)N(Cc1ccccc1)c1nc(-c2ccccc2)c(-c2ccccc2)s1	-18	22%	-25%	-24%	-18%	-0.7	-1
16	O=C(COC(=O)c1ccc(F)c(S(=O)(=O)N2CCOCC2)c1)NCc1ccc2c(c1)OCO2	2	?	-2%	-0.5%	.	.	.
17	Cc1ccc(CNC(=O)CSc2c3c(nc4cc(Cl)ccc24)CCCC3)o1	-1	?	1%	-3.1%	18µM*	9.2	-19
18	Cc1ccc(S(=O)(=O)Cc2nnnn2-c2ccccc2)cc1	-3	-14%	-5%	0.2%	8%	8.9	0
19	Cc1cccc2sc(N(CCCN(C)C)C(=O)CCc3ccccc3)nc12	0	-16%	12%	1.8%	?	5.3	-1
20	Cc1nc(SCC(=O)N(C)Cc2ccco2)c2c(C)c(C)sc2n1	-8	0%	-22%	-11%	-12%	7.2	-19
21	CCN(CC)C(=O)CN(C)S(=O)(=O)c1cccc2nsnc12	15	19%	4%	1.0%	0%	2.7	7
22	Cc1ccc(S(=O)(=O)N(C)C)cc1NC(=O)Nc1ccccc1F	-17	28%	6%	.	4%	1.8	?
23	Cc1ccc(-c2ccc(=O)n(CC(=O)Nc3cccc(C(=O)N4CCN(C)CC4)c3)n2)cc1	0	13%	-3%	-15%	10%	-1.8	-8
24	O=C(COC(=O)c1c2ccccc2cc2ccccc12)Nc1ncc(C(F)(F)F)cc1Cl	47	25µM*	-1%	6.6%	9%	1.5	11
25	Cc1ccc(NC(=O)CSCC(=O)N(C)Cc2ccc(Cl)c(Cl)c2)cc1	8	4%	-7%	1.2%	.	.	-6
26	CN1C(=O)CC(c2ccccc2)C1=O (configuration not stated)	0	.	0%	2.1%	.	.	4
27	CCN(CC(=O)Nc1ccc(C)c(F)c1)CC(=O)NC(C)C	-9	-6%[15.4 µM]	13%	.	9%	0.4	-16
28	C=CCN1c2ccccc2[C@]23C[C@@H](C(=O)OC)N(C(C)=O)C2=NC(C(=O)OC)=C(C(=O)OC)[C@H]13	.	-34%	-9%	-0.5%	12%&-2%	-3.0[11.7 µM]	-52
29	O=C(NCCCN1CCOCC1)c1cc(-c2ccco2)nc2ccccc12	-2	5%[15.4 µM]	-5%	1.2%	.	.	.
30	CC(=O)NN1C(=O)/C(=C\c2ccc(O)cc2)SC1=S	-6	-29%	1%	.	11%	?	-3
31	CC1(C(=O)O)COC(c2ccc([N+](=O)[O-])cc2)OC1 (configuration not stated)	-4	-51%[inhibitor]	2%	-0.6%	11%	0.5	-3
32	CCN(CC)CCNCc1cc(Br)ccc1OCC(=O)NCc1ccccc1	.	3%	6%	-2.3%	-28%	-13	0
33	COc1cc2c(cc1O)CC[C@@H]1[C@@H]2CC[C@]2(C)[C@@H](O)CC[C@@H]12	-2	.	2%	0.8%&-0.5%	11%	-0.8	-7
34	CCc1ccc(NC(=O)Cn2nc(C)c([N+](=O)[O-])c2C)cc1	8	0%	3%	-1.4%	15%	4.0	2
35	COc1cc(C(c2c(C)[nH][nH]c2=O)c2c(C)[nH][nH]c2=O)ccc1OCc1ccc([N+](=O)[O-])cc1	-6	-15%	-5%	-1.3%	-19%	-4.9	-16
36	Cc1ccc(CN=C2NC(=O)C(CC(=O)NCCc3ccccc3)S2)cc1 (configuration not stated)	.	.	.	.	-3%	-1.6	5
37	O=C(Nc1nc(-c2ccc(S(=O)(=O)N3CCCC3)cc2)cs1)C1COc2ccccc2O1 (configuration not stated)	-1	-4%	-26%	-17%	4%	4.9	?
38	COc1c(N)c2ccccc2[nH]c1=O	-1	1%	6%	32µM*	13µM*	5.5	-4
39	CCN1CCN(C(=O)CN(CC)S(=O)(=O)c2ccc(Cl)cc2)CC1	6	-55%[inhibitor]	1%	-0.3%	0%	0.3	9
40	COc1ccc(C2=COc3ccccc3C(=O)N2)cc1	-13	4%[15.4 µM]	11%	.	8%	-1.1	11
41	CC(C(=O)NCCN1CCOCC1)c1ccc([N+](=O)[O-])cc1 (configuration not stated)	-3	4%	0%	-0.5%	7%	0.3	-2
42	COc1cc(NC(=O)c2cccs2)c(OC)cc1NC(=O)CCC(=O)Nc1ccc2ncccc2c1	.	9%[15.4 µM]	-20%	.	-11%	3.2	3
43	CC(OC(=O)/C=C/c1ccco1)C(=O)NC1CCCCC1C (configuration not stated)	-4	20%	-2%	-0.7%	.	.	-7
44	COc1cnc(-c2ccccc2)c(-c2ccccc2)n1	8	3%[15.4 µM]	-11%	.	.	.	.
45	CCCSc1ccc([C@H]2N[C@@](Cc3ccccc3)(C(=O)OC)[C@H]3C(=O)N(CC)C(=O)[C@@H]23)cc1	-16	.	-10%	-5.2%	.	.	?
46	Cc1ccc(S(=O)(=O)NCC(=O)N2CCC(C)CC2)cc1	-2	3%	4%	-3.8%	10%	-0.8	-3
47	O=C(CSc1nnc(-c2ccc3c(c2)OCCO3)o1)NC1CCCCC1	.	.	.	.	0%	5.1	7
48	Cc1ccc(NC(=O)c2cnc(SCC(=O)NCC3CCCO3)n(C)c2=O)cc1C (configuration not stated)	-4	8%[15.4 µM]	-2%	-1.9%	.	.	1
49	CCN(CC)CCN(Cc1cc2cc3c(cc2[nH]c1=O)OCCO3)C(=S)NC	-16	7%	-1%	4.0%	2%	1.0	-4
50	COc1ccc(OCc2cccc(C(=O)Nc3cc(C)on3)c2)cc1	-3	-68%[inhibitor]	3%	0.6%	4%	4.5	18
51	O=C(O)COc1ccc(S(=O)(=O)N2CCCC2)cc1	7	6%	1%	0.5%	24%	-0.5	-4
52	COc1ccc(-c2csc(N(CC3CCCO3)C(=O)c3ccc(C)cc3)n2)cc1 (configuration not stated)	-11	-1%	-10%	-4.3%	15%	-2.3	-7
53	Cc1nc(N/C(N)=N/S(=O)(=O)c2ccc([N+](=O)[O-])cc2)nc2ccccc12	-1	21%[15.4 µM]	11%	0.7%	7%	6.1	4
54	C(=NN=C1c2ccccc2-c2ccccc21)c1ccc2c(c1)OCO2	0	0%	-14%	-2.7%	.	.	.
55	CCOC(=O)C(=O)NN=C(c1ccccc1)c1ccccc1	1	-19%[15.4 µM]	2%	.	14%	0.4	-8
56	CCOC(=O)c1c(NC(=O)Cn2c(C)nc3ccccc32)sc2c1CCC2	-2	-3%	?	10%	-2%	0.7	5
57	COC1C/C(=N\O)C2OC(c3ccccc3)OCC2O1 (configuration not stated)	17	24%	1%	0.6%	19%	-0.7	2
58	Cc1ccc(C(=O)Nc2nnc(S(=O)(=O)N3CCCCCC3)s2)cc1	-22	8%	8%	-13%&-2.5%	17%	-0.8	12
59	Cc1cc(C)n(CC(O)Cn2c3ccccc3c3ccccc32)c(=O)n1 (configuration not stated)	6	-61%[inhibitor]	-16%	-1.3%	5%	2.4	.
60	CSc1cc(-c2ccco2)oc1C(=O)c1ccco1	-27	0%	-12%	.	.	.	.

Continued:
#	Compound	CtBP-E1A blk	gsp agonist	gsp antagonist	ClpP mod	Sfp inh	Menin-MLL FL inh	TRPV1 potentiator
61	COc1cc(S(=O)(=O)N(CCc2ccccc2)Cc2cccs2)ccc1-n1cnnn1	6	-50%	3%	-0.2%	4%	-1.6	0
62	COc1ccc(CN(CC(=O)NCc2ccccc2)C(=O)c2csnn2)cc1	.	-61%[inhibitor]	8%	-3.5%	-7%	0.0	-21
63	COc1cc(Cl)ccc1OCc1cc(C(=O)N2CCCCCCC2)no1	.	6%	4%	-1.1%	-12%	.	3
64	O=C(CSc1nc2ccccc2[nH]1)N1CCN(C(=O)c2ccco2)CC1	-7	29%	11%	0.8%	3%	3.0	4
65	Cc1ccc(C(=O)COC(=O)CNC(=O)Cc2ccccc2)cc1[N+](=O)[O-]	2	?	3%	-4.3%	2%	1.0	2
66	COc1cc(S(=O)(=O)N(Cc2cccc(OC)c2OC)CC2CCCO2)ccc1-n1cnnn1 (configuration not stated)	-5	?	-10%	0.4%	14%	1.2	2
